Source: PubChem BioAssay (Broad Institute)
MITF inh = inhibitors of MITF; TRPM1 promoter luciferase, luminescence, 24 h; actives 0.28% (n = 37,000); inhibition, % (test concentration not listed); AID 2240;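 active = most replicates at 85% or more, or half of them and the mean; inconclusive = half reach 85% but not the mean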;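 note: human melanocyte line stably carrying TRPM1 promoter luciferase reporter; 0% = vehicle wells and 100% = a positive control; the first replicate is given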
PD-1 reversal = reversal of PD-1 mediated T-cell inhibition | activation, % (test concentration not listed) | 29,000 tested, under 10 active | AID 2316 | primary human CD4 T cells, PD-L1 beads, CellTiter-Glo 96 h;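 active = replicate mean of 50% or more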;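 note: 0% = median vehicle wells and 100% = positive control; 100 nL library stock added to about 50 µL; numbers are from one replicate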
YB-1 expr inh = YB-1 expression inhibition; U2OS, qRT-PCR YB-1 vs CDIP delta delta Cp, 16 h; stronger effect = higher value; zero = DMSO, each unit about twofold; delta delta Cp (YB-1 minus CDIP) (no concentration beside the values); actives 0.37% (n = 30,000);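 active = delta delta Cp rounded down to an integer at or above 3, about 3 SD of DMSO wells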;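 note: higher means less YB-1 transcript or more CDIP transcript relative to DMSO; stock transfer was 100 nL into about 100 µL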
Hedgehog inh = Sonic Hedgehog pathway inhibition; Shh-LIGHT2 Gli-luciferase reporter, 30 h; inhibition, % (test concentration not listed); actives 2.1% (n = 22,000);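 active = replicate mean of 65% or more; inconclusive = mean lower but half the replicates past it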;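 note: pathway switched on by Shh-conditioned medium diluted 1 in 25 in low serum; 100 nL library stock added to about 40 µL; 0% = median of neutral wells and 100% = positive control level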
Numbers without * were called inactive; ? = inconclusive; . = no result given.

The line under a structure holds: PD-1 reversal	MITF inh	Hedgehog inh	YB-1 expr inh
C[C@@H]1CCCCO[C@@H](CN(C)S(=O)(=O)c2cn(C)cn2)[C@@H](C)CN([C@H](C)CO)C(=O)c2cc(NC(=O)Nc3ccc4c(c3)OCO4)ccc2O1
    2.7	0.2	-10.5	-0.202
CC(C)NC(=O)N(C)C[C@@H]1Oc2c(NS(=O)(=O)c3cn(C)cn3)cccc2C(=O)N([C@H](C)CO)C[C@@H]1C
    2.3	-15.8	-35.6	-0.617
C[C@@H]1CN([C@H](C)CO)C(=O)Cc2cc(NC(=O)CCN3CCOCC3)ccc2O[C@H]1CN(C)C(=O)Nc1ccc(C(F)(F)F)cc1
    .	-4.1	-7.2	0.0989
CC1N=C(SCC#N)N2C(C)N=C(SCC#N)N12 (stereo not drawn)
    0.5	22.9	1.0	-0.051
COc1ccc(NC(=O)N(C)C[C@H]2Oc3ccc(NC(=O)CCCCCC(=O)Nc4ccccc4N)cc3C(=O)N([C@H](C)CO)C[C@H]2C)cc1
    0.5	-15.6	.	0.192
COc1ccc(S(=O)(=O)N(C)C[C@@H]2OCCCC[C@@H](C)Oc3ccc(NS(C)(=O)=O)cc3C(=O)N([C@H](C)CO)C[C@@H]2C)cc1
    -1.8	0.7	54.6	0.301
C[C@@H]1CN([C@@H](C)CO)C(=O)Cc2cc(NC(=O)C3CCCCC3)ccc2O[C@@H]1CN(C)S(=O)(=O)c1cccs1
    -1.2	2.5	-19.2	-0.221
C[C@H]1CN([C@@H](C)CO)C(=O)Cc2cc(NC(=O)C3CC3)ccc2O[C@H]1CN(C)Cc1ccccc1
    -1.6	-3.4	0.8	-0.25
COc1ccc(S(=O)(=O)N(C)C[C@@H]2Oc3ccc(NC(=O)C4CCCCC4)cc3CC(=O)N([C@@H](C)CO)C[C@@H]2C)cc1
    0.7	0.0	-13.9	0.408
Cc1noc(C)c1NC(=O)Nc1ccc2c(c1)C(=O)N([C@H](C)CO)C[C@H](C)[C@@H](CN(C)Cc1ccc3c(c1)OCO3)OCCCC[C@@H](C)O2
    -0.7	-9.8	32.2	0.45
Cc1ccc2oc(-c3ccccc3)c(CN3CCOCC3)c(=O)c2c1
    -0.1	-5.7	-27.6	-0.233
COc1ccccc1NC(=O)Cn1cc(C(=O)C2CCCCC2)c2ccccc21
    -0.4	42.2	.	.
CC(C)NC(=O)Nc1ccc2c(c1)C(=O)N([C@H](C)CO)C[C@H](C)[C@@H](CN(C)S(=O)(=O)c1ccc(Cl)cc1)OCCCC[C@@H](C)O2
    1.2	7.1	-11.1	0.143
Cc1cccc(-n2c(N)cc(=O)nc2SCC(=O)Nc2sc3c(c2C#N)CCCCCC3)c1
    -9.4	64.0	.	.
CC(C)(O)C1=CCC23COC(C2)C(O)(C(=O)O)CCC13 (stereo not drawn)
    .	.	12.8	0.648
Cc1noc(C)c1S(=O)(=O)Nc1cccc2c1O[C@@H](CN(C)S(=O)(=O)c1cn(C)cn1)[C@@H](C)CN([C@H](C)CO)C2=O
    .	-5.2	-38.1	0.207
C=C1CCC(O)/C(C)=C\CC(C(C)C)C(OC2OC(COC(C)=O)C(O)C(O)C2O)C1 (stereo not drawn)
    0.5	-11.1	-11.8	1.32
CN1c2ccsc2-c2nc(SCc3ccc(Cl)cc3)ncc2S1(=O)=O
    0.2	-4.7	58.8	-0.677
C[C@@H]1CN([C@@H](C)CO)C(=O)Cc2cc(NC(=O)Nc3ccc4c(c3)OCO4)ccc2O[C@@H]1CN(C)S(=O)(=O)c1cn(C)cn1
    -1.8	-0.5	30.2	0.356
Cc1noc(C)c1NC(=O)Nc1ccc2c(c1)C(=O)N([C@@H](C)CO)C[C@H](C)[C@@H](CN(C)Cc1ccc(-c3ccccc3)cc1)O2
    .	11.0	-55.3	-0.461
O=C(NCc1ccco1)c1nc2ncccn2n1
    0.9	-11.9	.	.
C[C@@H]1CCCCO[C@@H](CN(C)S(=O)(=O)c2ccccc2)[C@@H](C)CN([C@H](C)CO)C(=O)c2cc(NC(=O)Nc3ccccc3)ccc2O1
    .	9.4	-15.1	0.235
O=C(CSc1n[nH]c(-c2ccc(Cl)cc2)n1)Nc1cccc(C(F)(F)F)c1
    -2.5	16.1	.	.
C[C@H](CO)N1C[C@H](C)[C@H](CN(C)Cc2ccc(Oc3ccccc3)cc2)Oc2c(NC(=O)Nc3ccc(F)cc3)cccc2C1=O
    -1.7	8.9	-19.8	-0.48
Cc1noc(C)c1NC(=O)N(C)C[C@@H]1Oc2c(NC(=O)C3CC3)cccc2C(=O)N([C@H](C)CO)C[C@@H]1C
    3.7	1.2	-1.5	-0.559
Cc1noc(C)c1S(=O)(=O)Nc1ccc2c(c1)C(=O)N([C@@H](C)CO)C[C@H](C)[C@@H](CN(C)C(=O)Nc1cccc3ccccc13)O2
    1.5	7.9	-23.3	-0.0863
CCOC(Cn1c2ccccc2c2ccccc21)OCC
    -1.1	-8.4	-26.0	-0.205
Cc1cc(Cl)ccc1OCC(=O)Nc1cccc(NC(=O)c2ccccc2C)c1
    -0.3	-0.7	.	.
C[C@@H]1CN([C@@H](C)CO)C(=O)c2cc(N(C)C)ccc2O[C@@H]1CN(C)Cc1ccc(-c2ccccc2)cc1
    -0.1	-3.4	20.3	0.37
Cc1cc(C)nc(NS(=O)(=O)c2ccc(-n3c(-c4ccc5ccccc5n4)n[nH]c3=S)cc2)n1
    -0.2	-12.4	.	.
CC(C)NC(=O)N(C)C[C@H]1Oc2ccc(NC(=O)C3CCCCC3)cc2C(=O)N([C@@H](C)CO)C[C@H]1C
    0.2	-5.6	-1.4	-0.0685
C[C@H]1CN([C@@H](C)CO)C(=O)c2cc(NC(=O)Cn3cnnn3)ccc2O[C@@H]1CN(C)Cc1ccc(-c2ccccc2)cc1
    6.8	-6.4	.	0.0385
COc1ccc(NC(=O)N(C)C[C@@H]2Oc3c(NC(=O)c4ccc(-c5nccs5)cc4)cccc3C(=O)N([C@H](C)CO)C[C@@H]2C)cc1
    1.5	-6.9	20.7	-0.282
COc1ccc(CN(C)C[C@H]2Oc3ccc(NS(C)(=O)=O)cc3C(=O)N([C@H](C)CO)C[C@H]2C)cc1
    1.3	-4.8	-9.0	-0.0569
c1cc(-c2nn[nH]n2)ccc1OCc1nn[nH]n1
    -1.2	-23.3	.	.
C[C@H]1CN([C@@H](C)CO)C(=O)c2cc(NC(=O)Nc3ccc(F)cc3)ccc2O[C@@H]1CN(C)Cc1ccc(C(=O)O)cc1
    0.9	-12.1	.	0.193
COc1ccc(C)cc1NC(=O)CNS(=O)(=O)c1ccc(C)cc1
    -1.5	10.5	.	.
Cc1noc(C)c1S(=O)(=O)Nc1ccc2c(c1)C(=O)N([C@H](C)CO)C[C@H](C)[C@@H](CN(C)CC1CC1)O2
    -0.9	-2.1	-10.0	-0.262
O=C(CSc1nnnn1-c1ccccc1)Nc1cccc(C(=O)O)c1
    0.1	-18.5	.	.
C[C@H](CO)N1C[C@H](C)[C@@H](CN(C)C(=O)Nc2cccc3ccccc23)Oc2ccc(NC(=O)Nc3ccccc3)cc2C1=O
    0.9	1.7	-6.1	0.559
COc1cc(C2c3c(cc(OC)c(O)c3OC)CC(CO)C2COC2OC(CO)C(O)C(O)C2O)cc(OC)c1O (stereo not drawn)
    0.1	-10.0	-2.3	-0.264
COc1ccc(CN(C)C[C@@H]2Oc3ccc(NS(=O)(=O)c4ccc(F)cc4)cc3C(=O)N([C@@H](C)CO)C[C@H]2C)cc1
    0.3	0.2	0.3	-0.0174
COc1cc(Cl)c(C)cc1NC(=O)CSC1=C(C#N)C(c2ccccc2F)CC(=O)N1 (stereo not drawn)
    -7.4	14.5	.	.
CCOC(=O)c1c(C)oc2ccc(S(=O)(=O)n3cc(-c4ccc(C)cc4)c(N)n3)cc12
    2.7	31.3	.	.
O=C(Nc1cc(C(F)(F)F)ccc1Cl)C(Cc1ccccc1)N1C(=O)C2C3C=CC(C4CC34)C2C1=O (stereo not drawn)
    -2.3	21.1	.	.
Cc1noc(C)c1NC(=O)N(C)C[C@@H]1Oc2ccc(NC(=O)NC(C)C)cc2C(=O)N([C@@H](C)CO)C[C@@H]1C
    -0.5	7.7	-8.6	0.421
CCOC(=O)c1cc2c(NC(C)=O)c(C(=O)OCC)sc2nc1C(F)(F)F
    0.6	8.9	4.9	0.289
CNC[C@@H]1Oc2ccc(NC(=O)CCN3CCOCC3)cc2CC(=O)N([C@H](C)CO)C[C@@H]1C
    .	1.5	-2.1	-0.356
Fc1cccc(Cl)c1CSC1=NCCN1
    -0.7	16.7	38.1	-0.171
C[C@H](CO)N1C[C@H](C)[C@H](CN(C)Cc2ccc3c(c2)OCO3)Oc2ccc(NS(C)(=O)=O)cc2CC1=O
    0.2	3.7	-6.5	-0.0822
Cc1ccc(-c2nn3c(C)nnc3s2)cc1NC(=O)C(C)Oc1ccc(Cl)cc1Cl (stereo not drawn)
    2.6	-27.0	.	.
Cc1ccc(N(Cc2ccco2)C(=O)c2cccc(S(=O)(=O)N3CCOCC3)c2)cc1
    -1.2	-5.1	.	.
CC(C)NC(=O)Nc1ccc2c(c1)C(=O)N([C@H](C)CO)C[C@H](C)[C@@H](CN(C)Cc1ccc(C(=O)O)cc1)OCCCC[C@@H](C)O2
    0.4	-20.7	-9.6	0.219
COc1ccc(NC(=O)Nc2ccc3c(c2)C(=O)N([C@H](C)CO)C[C@H](C)[C@@H](CN(C)C(=O)Nc2ccc(F)cc2)OCCCC[C@@H](C)O3)cc1
    -4.4	1.4	4.1	0.284
C[C@@H]1CCCCO[C@@H](CN(C)S(=O)(=O)c2cccs2)[C@@H](C)CN([C@H](C)CO)C(=O)c2cc(NC(=O)Cc3ccccc3)ccc2O1
    -1.8	10.4	-0.1	-0.164
COc1cc(OC)cc(-c2nnc(SCC(=O)Nc3sc4c(c3C#N)CCCC4)o2)c1
    1.7	30.1	.	.
C[C@@H]1CN([C@H](C)CO)C(=O)c2cc(NC(=O)Nc3ccc4c(c3)OCO4)ccc2O[C@@H]1CN(C)Cc1ccc(Oc2ccccc2)cc1
    0.1	9.1	92.2*	-0.221
COc1ccc(S(=O)(=O)Nc2ccc3c(c2)C(=O)N([C@@H](C)CO)C[C@H](C)[C@H](CN(C)Cc2ccc(C(F)(F)F)cc2)O3)cc1
    1.2	-5.8	.	0.0203
COc1c(C(C)C)cc2c(c1O)[C@]13CC[C@H](OC1=O)C(C)(C)C3CC2 (stereo partly drawn)
    -0.4	-8.3	-37.4	-8.53
C[C@@H]1CCCCO[C@H](CN(C)Cc2ccc(C(=O)O)cc2)[C@@H](C)CN([C@H](C)CO)C(=O)c2cc(NC(=O)C3CCCCC3)ccc2O1
    1.1	-2.9	-59.1	-0.0231

(next part)
The line under a structure holds: PD-1 reversal	MITF inh	Hedgehog inh	YB-1 expr inh
C[C@H]1CN([C@@H](C)CO)C(=O)c2cccc(NC(=O)Nc3ccc(F)cc3)c2O[C@H]1CN(C)Cc1ccc(Cl)c(Cl)c1
    -1.0	22.1	-6.1	0.194
Cc1ccc(S(=O)(=O)N(C)C[C@H]2Oc3ccc(NC(=O)Nc4ccc(C(F)(F)F)cc4)cc3C(=O)N([C@@H](C)CO)C[C@H]2C)cc1
    -1.7	99.9*	45.6	0.858
C[C@@H]1CN([C@H](C)CO)C(=O)c2cc(NS(=O)(=O)c3cn(C)cn3)ccc2O[C@H]1CN(C)S(=O)(=O)c1cn(C)cn1
    0.6	-2.0	-36.9	-0.501
C[C@@H]1CN([C@H](C)CO)C(=O)c2cc(NC(=O)CCN3CCOCC3)ccc2O[C@@H]1CN(C)Cc1ccncc1
    1.8	-0.2	.	-0.273
O=C(O)Cc1nn(Cc2ccc(Br)cc2F)c(=O)c2ccccc12
    .	-2.3	?	0.172
CC(C)NC(=O)N(C)C[C@H]1Oc2ccc(NC(=O)C3CCCCC3)cc2CC(=O)N([C@@H](C)CO)C[C@H]1C
    0.9	3.9	-20.0	-0.0776
C[C@@H]1CCCCO[C@H](CN(C)S(=O)(=O)c2cn(C)cn2)[C@@H](C)CN([C@H](C)CO)C(=O)c2cc(NC(=O)c3ccccc3)ccc2O1
    .	-6.4	.	0.171
Cc1ccc(-c2noc(CCCN3C(=O)c4ccccc4C3=O)n2)cc1
    1.0	-9.7	.	.
COc1ccc(S(=O)(=O)N(C)C[C@@H]2Oc3ccc(NS(=O)(=O)c4ccc(Cl)cc4)cc3C(=O)N([C@H](C)CO)C[C@H]2C)cc1
    -2.9	-8.0	.	-0.00185
C[C@@H]1CN([C@H](C)CO)C(=O)c2cc(N(C)C)ccc2O[C@H]1CN(C)Cc1ccc(Oc2ccccc2)cc1
    .	3.4	20.0	0.0158
CC(=O)Nc1ccc(NS(=O)(=O)c2ccc(C)cc2[N+](=O)[O-])cc1
    0.1	6.8	.	.
Cc1ccc(-c2nnc(SCc3ccccc3C#N)n2-c2ccccc2)cc1Cl
    2.0	-21.3	.	.

In another format: results already given
| molecule | PD-1 reversal | MITF inh | Hedgehog inh | YB-1 expr inh |
| --- | --- | --- | --- | --- |
| O=C(CSc1n[nH]c(-c2ccc(Cl)cc2)n1)Nc1cccc(C(F)(F)F)c1 | -2.5 | 16.1 | . | . |
| O=C(O)Cc1nn(Cc2ccc(Br)cc2F)c(=O)c2ccccc12 | . | -2.3 | ? | 0.172 |

An excerpt; the hit share may differ from the screen's.
